D2 agonist: Beta-Arrestin HTS for Positive Allosteric Modulators of the Human D2 Dopamine Receptor: Agonists; D(2) dopamine receptor (Homo sapiens), P14416; 0.084% of 360,000 active; DiscoveRx PathHunter D2 beta-arrestin, luminescence, 90 min; 100% = 57 uM dopamine signal; activation, % (test concentration not listed); in the data active = activation above about 40%; inconclusive = about 15% to 40%; inactive = below about 15%; note: compound concentration not given in the record; the text of the record calls up to 30% inactive
Target sequence (P14416 whole entry, looked up): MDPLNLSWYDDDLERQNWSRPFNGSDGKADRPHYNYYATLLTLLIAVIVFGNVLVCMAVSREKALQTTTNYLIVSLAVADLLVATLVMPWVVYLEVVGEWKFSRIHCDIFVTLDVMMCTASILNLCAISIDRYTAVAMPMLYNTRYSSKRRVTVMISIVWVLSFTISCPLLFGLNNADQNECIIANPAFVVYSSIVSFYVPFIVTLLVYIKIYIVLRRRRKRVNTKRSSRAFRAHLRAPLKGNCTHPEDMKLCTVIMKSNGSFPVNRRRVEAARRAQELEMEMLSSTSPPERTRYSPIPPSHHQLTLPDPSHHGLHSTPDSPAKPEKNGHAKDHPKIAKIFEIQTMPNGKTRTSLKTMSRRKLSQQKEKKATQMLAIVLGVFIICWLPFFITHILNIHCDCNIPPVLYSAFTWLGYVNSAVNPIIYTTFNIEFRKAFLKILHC
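DiscoveRx PathHunter D2 beta-arrestin cells (2,100/well) attached overnight, then compound-stimulated 90 min at 37 C in HBSS/10 mM HEPES/0.1% Tween-20 buffer; beta-galactosidase complementation read by luminescence after 1 h at ambient temperature. Dopamine 57 uM final (EC100) as control.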
Six1-Eya2 inh: qHTS Assay for Inhibitors of the Six1/Eya2 Interaction | AlphaScreen GST-Six1/His-Eya2 binding, biochemical; hits give low values; control for the full effect not named in the record | activity change, % (no concentration beside the values) | 0.56% of 360,000 active | AID 651725, 2012; in the data active = activity change below about -65%; inconclusive = about -30% to -65%; inactive = above about -30%; note: % is set by controls: 0 for no effect and ±100 for the full control effect; compound concentration not given in the record
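Compounds are tested against tagged Six1 and Eya2 proteins bridged by glutathione donor and nickel acceptor beads; after a one-hour incubation at 37 °C without light, AlphaScreen emission is recorded.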
CtBP-E1A inh: qHTS Assay for Inhibitors of the CtBP/E1A Interaction; CtBP / adenovirus E1A interaction (AlphaScreen); AlphaScreen GST-E1A/His-CtBP binding, 1536-well; hits give low values; control for the full effect not named in the record; activity change, % (concentration not given with the values); 0.49% of 340,000 active; AID 651724, 2012; in the data active means activity change below about -65%; inconclusive means about -30% to -65%; inactive means above about -30%; note: % is set by controls: 0 for no effect and ±100 for the full control effect
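Steps: dispense buffer (Tris pH 8.0, NaCl 300 mM, TCEP 1 mM, BSA, Tween 20); add 5X protein mix (GST-E1A, His-CtBP, 125 nM each); pin 23 nL compound; 2 h at 37 °C, dark; add 5X beads (50 ug/mL); 1 h; read.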
PINK1 modulator: A Quantitative High throughput Screen to Identify Chemical Modulators of PINK1 Expression; PINK1 immunofluorescence, high-content cytometry, 24 h; 0.2% of 410,000 active; Potency, µM (highest dose often 76.6 µM), for the others: at the highest dose activation (PINK1 increase), hits mostly activators; active = well fitted activation curve with a large enough effect; inconclusive = small, poorly fitted or top-dose-only effect; inactive = flat fitted curve, though single readings scatter; cell line not stated here;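 note: potency is the fitted concentration of half-maximal effect; % of control where 0% means no effect; nearly all actives have a fitted effect of over 65% in size; a mitochondrial uncoupler was the plate control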
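A stable cell line was treated with compounds at 5 concentrations for 24 hours, with CCCP as control. PINK1 levels and mitochondrial localization were measured by immunofluorescence with mitochondrial, cell and nuclear markers after fixation, read by laser-scanning cytometry.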
TRPML1 blocker: qHTS for Inhibitors of the Human Mucolipin Transient Receptor Potential 1 (TRPML1). Mucolipin-1 (Homo sapiens), Q9GZU1. TRPML1-inducible cells, Ca2+ dye fluorescence, FDSS; hits give low values; inhibition of EC80 agonist-evoked calcium signal. activity change, negative = inhibition, % (test concentration not listed). 0.02% of 390,000 active. AID 624415, 2012; in the data active means activity change below about -50%; inconclusive means about -30% to -50%; inactive means above about -30%;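 note: stimulus is agonist 54-4 at its EC80 concentration; % is set by controls: 0 for no effect and ±100 for the full control effect; compound concentration not given in the record; the text of the record puts the active cut at -80%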
Target sequence (Q9GZU1 whole entry, looked up): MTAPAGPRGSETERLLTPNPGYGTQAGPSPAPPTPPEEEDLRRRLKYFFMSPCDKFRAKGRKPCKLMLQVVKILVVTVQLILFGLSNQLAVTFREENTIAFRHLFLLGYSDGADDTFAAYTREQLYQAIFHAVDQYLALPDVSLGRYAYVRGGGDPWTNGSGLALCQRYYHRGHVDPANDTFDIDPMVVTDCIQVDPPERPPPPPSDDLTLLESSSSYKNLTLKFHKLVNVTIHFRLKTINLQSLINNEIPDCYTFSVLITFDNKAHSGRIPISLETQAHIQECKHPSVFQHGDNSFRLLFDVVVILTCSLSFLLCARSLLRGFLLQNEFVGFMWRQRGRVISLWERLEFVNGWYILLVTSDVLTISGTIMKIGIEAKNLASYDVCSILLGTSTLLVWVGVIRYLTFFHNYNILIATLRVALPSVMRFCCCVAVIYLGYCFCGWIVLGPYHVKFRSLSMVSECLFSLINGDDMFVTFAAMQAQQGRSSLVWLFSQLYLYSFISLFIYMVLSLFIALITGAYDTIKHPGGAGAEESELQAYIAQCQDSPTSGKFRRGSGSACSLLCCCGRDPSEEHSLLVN
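Calcium fluorescence in TRPML1-DL cells induced overnight with Tet: a 110 s read after compound pin addition, then a 110 s antagonist read after challenge with 54-4 at 4 uM final (EC80).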
TRPML1 ag: qHTS for Agonists of the Human Mucolipin Transient Receptor Potential 1 (TRPML1). activation, % (no concentration beside the values). 0.12% of 410,000 active. Mucolipin-1 (Homo sapiens), Q9GZU1. TRPML1-expressing cells, Ca2+ dye fluorescence, FDSS; host cell line not named in the record; reference of the full effect not given here. AID 624414, 2012; in the data active = activation above about 50%; inconclusive = about 30% to 50%; inactive = below about 30%; note: 0% is about no effect; the text of the record puts the active cut at 80%
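Agonist activity was taken from a 110 s kinetic Ca2+ dye read on the FDSS after pinning compounds onto TRPML1-DL cells. The cells were seeded at 1,500/well with Tet inducer, incubated about 16 h, then dye-loaded at room temperature.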
Active calls of the source: *; u = inconclusive; x = not tested or not shown; & = joins results of further samples; [ ] = remark or other dose.

SMILES	D2 agonist	Six1-Eya2 inh	CtBP-E1A inh	PINK1 modulator	TRPML1 blocker	TRPML1 ag
C/C(=N\NC(=O)c1ccc(O)cc1O)c1cccnc1	-0.4	-7	-9	-0.8%	4	1.6
CC[C@@]12C(=O)N(c3cccc(F)c3)C(=O)N1[C@H](c1ccc(OC)cc1)[C@@H]1C(=O)N(C(C)(C)C)C(=O)[C@@H]12	-0.8	-4	3	-0.8%	7	-0.6
N#Cc1c(N)nc2c(c1N)CC(CCl)O2 (stereo not given)	-4.3	0	0	-2.5%	2	-0.8
N#CC(C#N)=C1c2cc(S(=O)(=O)NCCO)ccc2-c2ccc(S(=O)(=O)NCCO)cc21	11	-3	2	-1.0%	0	0.3
COc1ccc(Cn2nnnc2C(CC(C)C)N2CCC(C(N)=O)CC2)cc1 (stereo not given)	-0.5	-4	-1	-0.7%	-3	-0.4
COc1ccc(-c2csc(NC(=O)CS(=O)(=O)c3ccccc3)n2)cc1OC	1.7	-14	1	2.8%	-9	-0.5
Cc1noc(NS(=O)(=O)c2ccc(N/C=C\C(=O)c3ccc(F)cc3)cc2)c1C	-2.1	-13	3	-0.4%	-13	0.7
CC1CCCC(NC(=O)c2cccc(S(=O)(=O)N3CCOCC3)c2)C1C (stereo not given)	-1.8	10	-1	6.3%	0	-1.0
O=C(c1cc2c(c(-c3cccc(-c4ccncc4)c3)n1)[C@@H](CCO)N(C(=O)c1ccc3c(c1)OCO3)C2)N1CCOCC1	x	-6	3	1.7%	x	-0.1
O=c1[nH]c(/C=C/c2cccc([N+](=O)[O-])c2)c([N+](=O)[O-])c(=O)[nH]1	1.1	-14	u	0.0%	-8	0.2
O=C(O)C1Cc2ccccc2CN1S(=O)(=O)c1ccc2ccccc2c1 (stereo not given)	-5.1	-8	-3	0.5%	2	-0.4
Cc1cc(C)c(S(=O)(=O)N2CCN(C(=O)c3ccccc3OCc3c(C)noc3C)CC2)c(C)c1	1.0	-4	1	-0.5%	-14	0.0
CCC(C(=O)NC1CCN(C)CC1)c1ccccc1 (stereo not given)	-4.6	1	6	-0.9%	7	-0.3
COc1ccc(C2=CSC3=NNC4(CCCCC4)NN23)cc1	-6.5	-2	-23	-0.4%	-15	-1.1
Cc1c(C(=O)O)c2cc(O)ccc2n1-c1ccccc1	-2.8	3	0	1.6%	-2	-0.6
Cc1ccccc1/C=N/N1C(=O)CSC1=S	5.9	-23	x	-0.2%	-16	1.1
CCOC(=O)N1CCN(C(=O)c2ccc(NS(=O)(=O)c3ccc4[nH]c(=O)[nH]c4c3)cc2)CC1	-2.1	-1	7	0.4%	-10	-1.0
CCN1CCCC1Cn1cnc2c([nH]c3cccc(Cl)c32)c1=O (stereo not given)	-4.4	8	0	2.0%	11	0.6
CC/C(=C1/C(=O)CC(C)(C)C(C(=O)OC)C1=O)N1CCCC1 (stereo not given)	-2.9	12	7	4.5%	16	0.7
O=C(Cc1ccc(S(=O)(=O)N2CCCCC2)s1)Nc1ccc(F)c(F)c1	2.0	-12	11	u	-17	0.2
CC1CC(=O)c2cnc(Nc3cccc(C(F)(F)F)c3)nc2C1 (stereo not given)	-4.4	-1	0	1.2%	1	2.1
COc1ccc(/C=N/Nc2ncnc3sc4c(c23)CCCC4)cc1O	13	-78*	-87*	-2.3%	-8	0.1
Cc1c(C(=O)NCC2CCCO2)cccc1[N+](=O)[O-] (stereo not given)	-2.9	-1	2	0.9%	7	-0.6
CCC(=O)c1ccc(OCC(=O)N2CCCC2)c(OC)c1	-2.6	0	11	0.0%	10	-0.4

Entries of single compounds from above:
`CCC(=O)c1ccc(OCC(=O)N2CCCC2)c(OC)c1` is listed as D2 agonist = -2.6; Six1-Eya2 inh = 0; CtBP-E1A inh = 11; PINK1 modulator = 0.0%; TRPML1 blocker = 10; TRPML1 ag = -0.4
`CC/C(=C1/C(=O)CC(C)(C)C(C(=O)OC)C1=O)N1CCCC1` (stereo not given) is listed as D2 agonist = -2.9; Six1-Eya2 inh = 12; CtBP-E1A inh = 7; PINK1 modulator = 4.5%; TRPML1 blocker = 16; TRPML1 ag = 0.7

Three structures already listed, sorted by SMILES length, falling:
SMILES	D2 agonist	Six1-Eya2 inh	CtBP-E1A inh	PINK1 modulator	TRPML1 blocker	TRPML1 ag
O=c1[nH]c(/C=C/c2cccc([N+](=O)[O-])c2)c([N+](=O)[O-])c(=O)[nH]1	1.1	-14	u	0.0%	-8	0.2
COc1ccc(Cn2nnnc2C(CC(C)C)N2CCC(C(N)=O)CC2)cc1 (stereo not given)	-0.5	-4	-1	-0.7%	-3	-0.4
COc1ccc(/C=N/Nc2ncnc3sc4c(c23)CCCC4)cc1O	13	-78*	-87*	-2.3%	-8	0.1

Later entries:
SMILES	D2 agonist	Six1-Eya2 inh	CtBP-E1A inh	PINK1 modulator	TRPML1 blocker	TRPML1 ag
Cn1nnc2cc(NC(=O)Nc3ccccc3F)ccc21	-9.5	-6	-15	11%	-17	0.0
Cc1cccc(NC2SC(=O)N(CC(=O)O)C2=O)c1 (stereo not given)	-5.1	0	45	1.0%[38.3 µM]	-27	-0.5
O=C1OC(Nc2nc(-c3ccc(F)cc3)cs2)c2ccccc21 (stereo not given)	-3.1	-2	-3	-1.9%	12	1.4
Cc1nc2n(COCCO)cnn2c(=O)c1Br	-5.0	-5	7	-2.2%	57	1.9
COc1cccc(N2CCN(C(=O)c3ccc(CS(=O)Cc4ccc(C)cc4)o3)CC2)c1 (stereo not given)	1.7	-6	-5	2.1%	-10	0.4
CCOc1ccc(CCNC(=O)CCCc2nnc3n(CC(C)C)c(=O)c4sccc4n23)cc1	x	x	x	0.4%	-10	-0.3
CC(C)(Cc1nc2ccccc2[nH]1)c1nc2ccccc2[nH]1	-2.0	0	4	3.2%	-3	0.1
CN(Cc1nc2ccccc2c(=O)[nH]1)C(=O)c1cccc(S(=O)(=O)N2CCCCCC2)c1	2.8	2	0	-1.4%	5	0.6
CS(=O)(=O)N(CCc1ccccc1)CC(=O)N1CCCCC1	-1.1	-1	-1	-0.6%	-1	3.7
COc1ccc2cc3cc(C(=O)NCCC(C)C)oc3nc2c1	-3.0	0	1	4.8%	-3	-1.1
O=S(=O)(c1cccc(-c2cn3cc(Cl)ccc3n2)c1)N1CCOCC1	-1.5	2	-24	4.1%[38.3 µM]	14	-0.8
CCOC(=O)NC1CCc2cc(OC)c(OC)c(OC)c2-c2ccc(SC)c(=O)cc21 (stereo not given)	-2.0	3	2	18%	9	1.1
Cc1ccc(C(C(=O)NC2CCCC2)N(Cc2ccc(F)cc2)C(=O)c2snc(C(N)=O)c2N)o1 (stereo not given)	-0.6	-7	1	4.0%	1	5.2
C[C@@H]1CN([C@H](C)CO)C(=O)c2cc(-c3ccc(C#N)cc3)cnc2O[C@H]1CN(C)C(=O)c1ccccc1	-9.4	5	2	3.3%	6	-0.5
CCCc1ccc(Oc2c(-c3ccc(O)c(C)c3O)n[nH]c2C)cc1	-5.5	-13	-5	2.6%	-12	9.9
CCN1/C(=C/c2sc(-c3ccccc3C)c[n+]2C)Sc2ccccc21	-6.3	1	0	u	29	-0.8
Cn1c(N)c(C(=O)CCl)c(=O)n(Cc2ccccc2)c1=O	-4.2	1	4	0.0%	-6	-0.6
Cn1c(C(=O)N2CCN(c3ccc(F)cc3)CC2)cc2ccccc21	-3.3	0	x	-0.2%	-5	-0.5
CCN(C(=O)CSc1nnc(SC)s1)c1c(N)n(Cc2ccccc2)c(=O)[nH]c1=O	1.9	5	13	-0.3%	12	-0.3
COCCNC(=O)/C(C#N)=C/c1ccc(O)c([N+](=O)[O-])c1	0.2	-7	x	0.0%	21	0.5
N/C(=N\OS(=O)(=O)c1ccc2ccccc2c1)c1ccncc1	41*	1	-1	6.2%	45	7.1
Cc1ccc(C2/C(=C(\O)c3ccc4c(c3)OCCO4)C(=O)C(=O)N2CC2CCCO2)cc1 (stereo not given)	-2.5	16	0	0.0%	3	0.4
COc1ccc(-c2oc3ccc(-c4ccc5c(c4)OCO5)cc3c2C#CC2(O)CCCCC2)cc1	1.0	-3	-25	8.1%	80	0.0
O=C(CNc1cccc(Cl)c1)NNC(=S)NCc1ccccc1	2.5	-4	2	-0.3%	16	2.0
CCOC(=O)C1=C(COC(=O)Cc2ccccc2[N+](=O)[O-])NC(=O)NC1C (stereo not given)	-0.8	8	-3	-1.0%	-2	-0.5
CCS(=O)(=O)Nc1cccc(C2=NN(S(C)(=O)=O)C(c3cccs3)C2)c1 (stereo not given)	1.6	20	15	7.9%	-21	0.0
CCOC(=O)N=S(=O)(Oc1ccc([N+](=O)[O-])cc1)c1ccccc1 (stereo not given)	-1.5	-3	-13	-1.3%	-6	0.6
O=C(NC1CC(=O)N(c2ccc(F)cc2)C1)N1CCN(C(=O)c2ccco2)CC1 (stereo not given)	-2.0	6	-7	0.2%	14	1.0
CCC(=O)Nc1nc2nc(C)cc(=O)n2[nH]1	1.1	11	-1	-2.0%	-18	-0.4
O=C(CNC(=O)N1CC(=O)Nc2ccccc21)Nc1ccc(Cl)cc1	-1.0	-1	2	0.1%	-7	-0.1
C[C@@H]1CN([C@H](C)CO)C(=O)c2cc(-c3ccccc3)cnc2O[C@@H]1CN(C)C(=O)C1CCOCC1	6.5	14	0	-0.3%	8	0.8
O=C(c1cc([N+](=O)[O-])cc([N+](=O)[O-])c1)N1CCCc2ccccc21	u	-6	6	11%	-5	-1.9
COc1cc(C(C(=O)NC2CCCC2)N(C(=O)c2ccco2)c2ccccc2C(C)=O)cc(OC)c1OC (stereo not given)	-1.6	-2	-4	-0.9%	-13	0.4
Cc1ccc(-c2nc(CSCC(=O)N3CCN(C(=O)c4ccco4)CC3)c(C)o2)cc1	6.1	4	-1	1.1%	17	1.1
COc1ccc(C(=O)Nc2ccc(NC(=O)c3ccccc3OC)nc2)cc1	6.1	-24	u	8.6%	-12	2.8
CCN(CC(=O)NC1CCS(=O)(=O)C1)c1ccc(S(=O)(=O)N(CC)CC)cc1[N+](=O)[O-] (stereo not given)	-0.1	3	9	3.1%	2	1.6
CCOC(=O)Cn1c(=NC(=O)CSC(C)=O)sc2cc(F)ccc21	-1.3	-2	2	1.5%	14	-0.1
COc1cc2ccccc2cc1C(=O)Nc1cccc(-c2nc3cc(C)c(C)cc3o2)c1C	x	x	x	3.4%	-2	0.2
Cc1ccc(NC(=O)COC(=O)CN2CCSC2=O)cc1F	-2.1	-2	0	-0.4%	18	-0.9
C#CCn1c(=NC(=O)c2ccc(S(=O)(=O)N3CCCc4ccccc43)cc2)sc2cc(S(N)(=O)=O)ccc21	-0.6	0	-7	-2.3%	6	0.7
Cc1ccc2nc(-c3ccco3)c(Nc3ccccc3)n2c1	6.7	13&8	-7	1.0%&17%	-3	-0.1&-0.3

From PubChem BioAssay
